Screening data: PubChem BioAssay, Broad Institute
DUX4 txn inh: DUX4-mediated transcription inhibition; AID 1224904; actives 0.8% (n = 37,000); activity change, negative = inhibition, % (test concentration not listed); 293T-iDUX4 ZSCAN4-Gaussia luciferase reporter, 24 h; active compounds read low;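 active = -10% or lower and over 25 points stronger than a control reporter; inconclusive = -10% or lower with a smaller gap; inactive = above -10%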;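 note: 0% = median of neutral control wells and -100% = median of positive control wells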
DUX4 txn inh difference: recorded beside DUX4 txn inh, whose call it bears; Gaussia minus Italica difference, %; measured here: selective DUX4 reporter inhibition;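 worked out from the two reporters; negative = selective loss of the DUX4 reporter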
DUX4 txn inh control: recorded beside DUX4 txn inh, whose call it bears; activity change, negative = inhibition, %; measured here: Italica tet-on control reporter;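 0 = neutral control and -100 = positive control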
An asterisk follows results filed as active; ? = inconclusive; . = no result given. Only part of the results is shown. The share of hits here may be higher or lower than overall.

item | Structure | DUX4 txn inh | DUX4 txn inh difference | DUX4 txn inh control
1 | COc1ccc([C@H]2C/C=C\C[C@H](c3cccc(Cl)c3)NC(=O)[C@@H](c3ccccc3)CC(=O)N2)c(OC)c1 | -1 | 14 | -15
2 | CN1c2ccc(Br)cc2[C@@H]2[C@@H](CCN2S(=O)(=O)c2ccccc2)[C@@H]1CO | -3 | -7 | 4.9
3 | C[C@@H]1CN([C@@H](C)CO)C(=O)c2cc(NS(=O)(=O)c3cn(C)cn3)ccc2O[C@H]1CN(C)S(=O)(=O)c1ccc(F)cc1 | -2 | -1 | -0.6
4 | COc1ccccc1S(=O)(=O)N(C)C[C@@H]1OCc2ccccc2-c2ccccc2C(=O)N([C@@H](C)CO)C[C@H]1C | -1 | 1 | -1.7
5 | CCC(=O)N1CC2(C1)CN(S(=O)(=O)c1ccccc1)[C@H](CO)c1[nH]c3cc(OC)ccc3c12 | 10 | 9 | 1.2
6 | CCS(=O)(=O)N1CC2(CN(Cc3ccccc3F)[C@H](CO)c3[nH]c4cc(OC)ccc4c32)C1 | ? | . | .
7 | CS(=O)(=O)N1CC2(C1)[C@H](c1ccccc1)[C@H](CO)N2Cc1ccc(F)cc1 | -4 | -1 | -2.8
8 | Cc1cccc(-c2ccc([C@H]3[C@H](CO)N4CCCCN(C(=O)c5ccncc5)C[C@@H]34)cc2)c1 | 7 | 2 | 4.8
9 | C[C@H]1CN([C@@H](C)CO)C(=O)c2ccccc2-c2ccccc2CO[C@@H]1CN(C)C(=O)[C@@H]1CCCN1C | 6 | -5 | 10
10 | O=C(NCC(F)(F)F)[C@@H]1[C@@H](CO)[C@@H]2Cn3c(cccc3=O)[C@@H]2N1C(=O)C1CCCC1 | 2 | 1 | 0.2
11 | O=C(C[C@H]1CC[C@@H]2[C@H](COC[C@H](O)CN2Cc2cccc(F)c2)O1)NCCc1ccncc1 | 0 | -5 | 4.4
12 | COc1cccc(NC(=O)N2C[C@@H](O)COC[C@@H]3O[C@H](CC(=O)NC4Cc5ccccc5C4)CC[C@H]32)c1 | 8 | 6 | 1.9
13 | C[C@@H]1CN([C@@H](C)CO)C(=O)c2ccccc2-c2ccccc2CO[C@H]1CN(C)C(=O)[C@H]1CCCN1C | 2 | 2 | 0.6
14 | CCCN1[C@@H]2c3ccc(-c4cncnc4)c(=O)n3C[C@@H]2[C@@H](CO)[C@@H]1C(=O)OC | 0 | 2 | -2.0
15 | O=C(C[C@H]1C=C[C@@H](NC(=O)C2CC2)[C@@H](CO)O1)NCc1ccncc1 | 7 | 8 | -1.9
16 | CC(C)CC#Cc1ccc([C@H]2[C@H]3CN(C(=O)Nc4ccccc4)CCCCN3[C@H]2CO)cc1 | 39 | 43 | -3.3
17 | CO[C@@H]1CN(C)C(=O)c2ccc(NC(=O)Cc3ccccc3)cc2OC[C@@H](C)N(C(C)=O)C[C@H]1C | 0 | -1 | 1.5
18 | Cc1noc(C)c1NC(=O)N(C)C[C@H]1OCc2cn(nn2)CCCC(=O)N([C@@H](C)CO)C[C@@H]1C | -1 | 4 | -4.8
19 | Cc1noc(C)c1S(=O)(=O)Nc1ccc2c(c1)CC(=O)N([C@H](C)CO)C[C@@H](C)[C@H](CN(C)Cc1ccc(Oc3ccccc3)cc1)O2 | 1 | 3 | -1.7
20 | C[C@H]1CN([C@@H](C)CO)C(=O)c2cccc(NS(=O)(=O)c3ccc(Cl)cc3)c2O[C@H]1CN(C)Cc1ccc(C(=O)Nc2ccccc2N)cc1 | -3 | -7 | 4.2
21 | O=C(C[C@@H]1CC[C@@H]2[C@H](COC[C@@H](O)CN2C(=O)Nc2ccc3c(c2)OCO3)O1)N1CCN(c2ccccc2)CC1 | 2 | -1 | 3.1
22 | C[C@@H]1CN([C@H](C)CO)C(=O)Cc2cc(NS(=O)(=O)c3cn(C)cn3)ccc2O[C@H]1CN(C)C(=O)NC1CCCCC1 | 1 | -8 | 8.4
23 | CN1C[C@H]2[C@@H](c3ccccc31)[C@H](CO)N2C(=O)C1CCCCC1 | 1 | 3 | -1.6
24 | COCCNC(=O)c1cc2c(c(-c3cccc(C4=CCCCC4)c3)n1)[C@@H](CCO)N([S@](=O)C(C)(C)C)C2 | -2 | -4 | 1.9
25 | COc1ccc(NC(=O)Nc2cccc3c2O[C@H](CN(C)S(=O)(=O)c2cccs2)[C@@H](C)CN([C@@H](C)CO)C3=O)cc1 | -2 | -3 | 0.7
26 | C[C@H](NC(=O)C[C@@H]1C=C[C@@H](NC(=O)c2cccnc2)[C@@H](CO)O1)c1ccccc1 | 3 | 4 | -1.0
27 | COc1ccccc1S(=O)(=O)N(C)C[C@@H]1OCc2cn(nn2)CCCC(=O)N([C@@H](C)CO)C[C@H]1C | 3 | 0 | 2.3
28 | CC(=O)N(C)C[C@@H]1Oc2cc(-c3ccc(C)cc3)ccc2S(=O)(=O)N([C@@H](C)CO)C[C@H]1C | 0 | -2 | 2.4
29 | O=C(c1cccc(F)c1)N1CC(=O)N2[C@H](CO)[C@H](c3ccc(C#Cc4ccc(F)cc4)cc3)[C@H]2C1 | -6 | -2 | -4.9
30 | CN1C(=O)c2cc(NC(=O)Nc3ccccc3F)ccc2OC[C@@H]2O[C@H](CC(=O)NCCc3ccncc3)CC[C@H]21 | 3 | 4 | -0.4
31 | C[C@H](CO)N1C[C@H](C)[C@H](CN(C)Cc2ccc(O)cc2)OCc2cnnn2CCCC1=O | -4 | -3 | -0.5
32 | CC(=O)N1CC(=O)N2[C@H](CO)[C@@H](c3ccc(-c4ccccc4)cc3)[C@@H]2C1 | 11 | 4 | 6.7
33 | O=C(c1cc2c(c(-c3cccc(Br)c3)n1)[C@@H](CCO)NC2)N1CCCCC1 | 3 | 2 | 0.8
34 | CO[C@H](CN(C)S(=O)(=O)c1ccc(F)cc1)[C@H](C)CN(Cc1ccccc1Cl)[C@H](C)CO | ? | . | .
35 | C[C@@H]1CCCCO[C@@H](CN(C)C(=O)Cc2ccccc2)[C@@H](C)CN([C@@H](C)CO)C(=O)c2cc(NS(C)(=O)=O)ccc2O1 | -1 | -3 | 1.4
36 | Cc1ccc(-c2cnc3c(c2)C(=O)N([C@H](C)CO)C[C@H](C)[C@@H](CN(C)Cc2ccccc2C(=O)O)O3)cc1 | -2 | -1 | -1.6
37 | COc1ccc(CN2CC3(C2)CN(C(=O)Nc2ccc(F)cc2)[C@@H](CO)c2[nH]c4cc(OC)ccc4c23)cc1 | -39* | -28* | -12*
38 | CCCC(=O)N1CC2(C1)CN(Cc1ccncc1)[C@@H](CO)c1[nH]c3cc(OC)ccc3c12 | 9 | 6 | 2.8
39 | O=C(NCC1CCCCC1)[C@H]1[C@H](CO)[C@H]2Cn3c(cccc3=O)[C@@H]1N2CCc1ccccc1 | -5 | -5 | -0.8
40 | COc1ccc2c3c([nH]c2c1)[C@@H](CO)N(C(=O)Nc1ccc(F)cc1)CC31CN(Cc2cc(-c3ccccc3)on2)C1 | ? | . | .

6 structures already listed, arranged by length of the SMILES, descending:
item | Structure | DUX4 txn inh | DUX4 txn inh difference | DUX4 txn inh control
25 | COc1ccc(NC(=O)Nc2cccc3c2O[C@H](CN(C)S(=O)(=O)c2cccs2)[C@@H](C)CN([C@@H](C)CO)C3=O)cc1 | -2 | -3 | 0.7
30 | CN1C(=O)c2cc(NC(=O)Nc3ccccc3F)ccc2OC[C@@H]2O[C@H](CC(=O)NCCc3ccncc3)CC[C@H]21 | 3 | 4 | -0.4
29 | O=C(c1cccc(F)c1)N1CC(=O)N2[C@H](CO)[C@H](c3ccc(C#Cc4ccc(F)cc4)cc3)[C@H]2C1 | -6 | -2 | -4.9
34 | CO[C@H](CN(C)S(=O)(=O)c1ccc(F)cc1)[C@H](C)CN(Cc1ccccc1Cl)[C@H](C)CO | ? | . | .
31 | C[C@H](CO)N1C[C@H](C)[C@H](CN(C)Cc2ccc(O)cc2)OCc2cnnn2CCCC1=O | -4 | -3 | -0.5
23 | CN1C[C@H]2[C@@H](c3ccccc31)[C@H](CO)N2C(=O)C1CCCCC1 | 1 | 3 | -1.6

(listing goes on)
item | Structure | DUX4 txn inh | DUX4 txn inh difference | DUX4 txn inh control
41 | COc1ccc(C#Cc2ccc([C@@H]3[C@H](CO)N4C(=O)CN(C(=O)Nc5ccccc5F)C[C@@H]34)cc2)cc1 | ? | . | .
42 | O=C(Nc1ccc2c(c1)[C@H]1C[C@@H](CC(=O)N3CCc4ccccc4C3)O[C@@H](CO)[C@H]1O2)c1cccnc1 | 3 | 6 | -2.8
43 | O=C(c1ccncc1)N1CC2(C1)[C@H](c1ccccc1)[C@H](CO)N2Cc1ccccn1 | -2 | -3 | 1.6
44 | CCC(=O)N1CC2(C1)CN(C(C)=O)[C@H](CO)c1[nH]c3cc(OC)ccc3c12 | 16 | 10 | 5.9
45 | Cc1ccc(S(=O)(=O)Nc2ccc3c(c2)C(=O)N([C@H](C)CO)C[C@@H](C)[C@H](CN(C)Cc2ccc(C(F)(F)F)cc2)O3)cc1 | -4 | -1 | -2.8
46 | C[C@@H](NC(=O)C[C@H]1CC[C@@H](NC(=O)Cc2ccccn2)[C@H](CO)O1)c1ccccc1 | -7 | -4 | -2.3
47 | O=C(C[C@@H]1CC[C@@H](NS(=O)(=O)c2ccc(F)cc2)[C@@H](CO)O1)N1CCN(c2ccccc2)CC1 | -3 | -9 | 5.8
48 | CC(=O)Nc1ccc2c(c1)C(=O)N(C)[C@H]1CC[C@H](CC(=O)NC3CCCCC3)O[C@H]1CO2 | 1 | 2 | -0.3
49 | CCCC(=O)Nc1ccc2c(c1)OC[C@@H](C)N(Cc1cc(F)ccc1F)C[C@@H](C)[C@H](OC)CN(C)C2=O | -6 | -8 | 2.5
50 | C[C@@H]1CN([C@H](C)CO)C(=O)Cc2cc(NC(=O)Nc3cccc4ccccc34)ccc2O[C@@H]1CN(C)Cc1ccc(C(=O)O)cc1 | 7 | 3 | 3.8
51 | CC(=O)N1[C@H](C(=O)NC2CCCCC2)[C@@H](CO)[C@@H]2Cn3c(cccc3=O)[C@@H]21 | -6 | -9 | 3.4
52 | CN1C(=O)c2cc(NC(=O)c3cnccn3)ccc2OC[C@@H]2O[C@H](CC(=O)N[C@H]3CCN(Cc4ccccc4)C3)CC[C@H]21 | -1 | -3 | 2.7
53 | O=C(C[C@@H]1CC[C@H](NC(=O)Nc2ccc(C(F)(F)F)cc2)[C@@H](CO)O1)NCc1cccc(F)c1 | -6 | 1 | -7.0
54 | COc1ccc(NC(=O)N2CC[C@@H]3[C@@H](CO)N(C)c4ccc(-c5ccc(F)cc5)cc4[C@@H]32)cc1 | 2 | 22 | -20
55 | CC(=O)N1[C@H](CNC(=O)C2CC2)[C@H](c2ccc(-c3cccc(F)c3)cc2)[C@@H]1CO | -2 | -6 | 4.3
56 | COC(=O)C[C@H]1CC[C@@H]2[C@H](COC[C@H](O)CN2S(=O)(=O)c2ccccc2C)O1 | 10 | -1 | 11
57 | CO[C@@H]1CN(C)C(=O)c2cc(NC(=O)c3cnccn3)ccc2OC[C@H](C)NC[C@@H]1C | -4 | 4 | -7.8
58 | Cc1noc(C)c1NC(=O)N(C)C[C@H]1OCCCC[C@H](C)Oc2ccc(NC(=O)c3ccncc3)cc2C(=O)N([C@@H](C)CO)C[C@@H]1C | 2 | -3 | 5.2
59 | COc1ccc(-c2ccc([C@H]3[C@H](C#N)N(C(=O)C4CCCC4)[C@H]3CO)cc2)cc1 | -1 | 1 | -2.3
60 | COc1ccc2c3c([nH]c2c1)[C@@H](CO)NCC31CN(C(=O)c2ccccc2)C1 | -3 | -1 | -1.2
61 | CN(C)CC(=O)Nc1ccc2c(c1)[C@H]1C[C@H](CC(=O)NCc3ccccn3)O[C@H](CO)[C@H]1O2 | 4 | 3 | 0.7
62 | CO[C@@H]1CC[C@H]2CCOc3ccc(C#N)cc3C(=O)N(C)C[C@H](C)C(=O)N(C)C[C@H]1O2 | 2 | 0 | 1.9
63 | C[C@@H]1CN([C@H](C)CO)C(=O)Cc2cc(NC(=O)C3CC3)ccc2O[C@@H]1CN(C)S(=O)(=O)c1cn(C)cn1 | 2 | 2 | 0.5
64 | C[C@H](CO)N1C[C@H](C)[C@@H](CN(C)Cc2cccc(C(=O)O)c2)Oc2ncc(/C=C/c3ccccc3)cc2C1=O | -1 | -3 | 1.3
65 | COc1cccc(CN2[C@H](CO)[C@@H](c3ccccc3)C23CN(C(=O)C2CCC2)C3)c1 | 2 | -11 | 13
66 | Cc1noc(C)c1C(=O)N(C)C[C@H]1OCc2ccccc2-c2c(n(C)c3ccccc23)C(=O)N([C@H](C)CO)C[C@@H]1C | -4 | -9 | 5.0
67 | CCC(=O)N1[C@@H]2c3ccc(-c4ccccc4)c(=O)n3C[C@H]1[C@H](CO)[C@H]2C(=O)N(C)C | 0 | -5 | 5.0
68 | CCCNC(=O)N1C[C@@H](O)COC[C@@H]2O[C@@H](CC(=O)N3CCN(C)CC3)CC[C@H]21 | 3 | -1 | 4.1
69 | CCCNC(=O)N(C)C[C@H]1Oc2ncc(-c3ccc(C(=O)N(C)C)cc3)cc2C(=O)N([C@H](C)CO)C[C@@H]1C | 1 | -1 | 1.6
70 | CC(=O)N1[C@@H](CO)[C@@H]2c3ccccc3N(S(=O)(=O)c3ccccc3)C[C@@H]21 | -1 | -4 | 3.3
71 | C[C@@H]1CN([C@@H](C)CO)C(=O)Cc2cc(NC(=O)Nc3ccc4c(c3)OCO4)ccc2O[C@@H]1CN(C)S(=O)(=O)c1ccccc1 | -2 | -6 | 4.0
72 | O=C(CN1CCOCC1)N1CCCCN2[C@H](CO)[C@@H](c3ccc(/C=C/c4ccccc4)cc3)[C@H]2C1 | 4 | 2 | 2.3
73 | COCC#Cc1cnc2c(c1)C(=O)N([C@@H](C)CO)C[C@H](C)[C@@H](CN(C)C(=O)CCN1CCCCC1)O2 | -6 | -6 | -0.2
74 | COc1ccc2c3c(n(C)c2c1)[C@H](CO)N(C(=O)CC1CC1)CC31CCN(Cc2nccs2)CC1 | 17 | -7 | 24
